Screens: PubChem, Johns Hopkins Ion Channel Center
KCNQ2 pot: potentiators of rat KCNQ2 potassium channel | CHO-K1 KCNQ2, FluxOR thallium flux fluorescence; active compounds read high | B-score at 10 µM | 310,000 tested, 0.54% active;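 active = fluorescence ratio B-score at least 3 SD of library B-scores, with initial fluorescence B-score within 3 SD, cut at about 5.3 in these data; same plate scores as AID 2156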;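 also: B-score of peak minus minimum over baseline fluorescence ratio after K+ and Tl+ stimulus; positive B-score means potentiation of KCNQ2 with more thallium influx and brighter signal; only the inactives scoring about 0 or higher are listed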
Target sequence (O88943 whole entry, looked up): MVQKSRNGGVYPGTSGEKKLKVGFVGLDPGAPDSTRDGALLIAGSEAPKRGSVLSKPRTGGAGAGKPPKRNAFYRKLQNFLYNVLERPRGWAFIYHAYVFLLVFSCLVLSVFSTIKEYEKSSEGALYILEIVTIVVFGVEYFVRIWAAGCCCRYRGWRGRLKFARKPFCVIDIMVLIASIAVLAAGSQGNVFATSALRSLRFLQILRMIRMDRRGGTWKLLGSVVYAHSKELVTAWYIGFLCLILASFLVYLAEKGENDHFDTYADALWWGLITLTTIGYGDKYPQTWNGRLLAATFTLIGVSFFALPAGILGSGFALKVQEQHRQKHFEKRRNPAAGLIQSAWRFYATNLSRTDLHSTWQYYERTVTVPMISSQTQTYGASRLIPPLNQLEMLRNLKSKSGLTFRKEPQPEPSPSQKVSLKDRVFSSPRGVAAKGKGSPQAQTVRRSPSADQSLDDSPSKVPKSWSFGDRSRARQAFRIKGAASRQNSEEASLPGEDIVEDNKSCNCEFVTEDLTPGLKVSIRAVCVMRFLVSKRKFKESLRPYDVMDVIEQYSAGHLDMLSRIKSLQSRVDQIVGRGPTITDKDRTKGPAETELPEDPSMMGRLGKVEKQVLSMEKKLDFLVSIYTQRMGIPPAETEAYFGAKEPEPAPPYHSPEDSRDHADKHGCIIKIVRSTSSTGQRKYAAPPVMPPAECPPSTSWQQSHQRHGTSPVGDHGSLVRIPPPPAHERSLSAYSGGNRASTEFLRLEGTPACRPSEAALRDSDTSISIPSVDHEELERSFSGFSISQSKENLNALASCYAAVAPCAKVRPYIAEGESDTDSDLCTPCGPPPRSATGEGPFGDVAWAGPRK
KCNQ2 pot baseline: recorded beside KCNQ2 pot, whose call it bears; B-score; compound at 10 µM; measured here: initial fluorescence intensity artifact check;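 brightness before thallium and not channel activity; 0 = typical well and far values either way flag optical interference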
* marks the source's active call; other numbers are inactive results; x = not tested or not shown. The list is partial (hit frequency here may not be typical).

SMILES | KCNQ2 pot | KCNQ2 pot baseline
CCn1cc(C(=O)NCCC(=O)NCCO)c(=O)c2cc3c(cc21)OCO3 | 0.68 | 0.31
CCOC(=O)N1CCN(c2ncnc3nc[nH]c23)CC1 | 0.87 | -0.45
CC(=O)CSc1ccc(C(=O)O)cn1 | 0.89 | -1.14
CCCc1nc2c(nnn2Cc2ccccc2Cl)c(=O)[nH]1 | 0.53 | -0.07
CC(C)C(NS(=O)(=O)c1ccccc1)C(=O)N1CCN(C(=O)c2ccco2)CC1 (centres undefined) | 0.39 | -1.99
CCOc1ccc(NC(=O)CN(C)CC(=O)Nc2ccccc2SC)cc1OCC | 0.95 | -0.92
CN(CC(=O)Nc1ccc(Cl)c(C(F)(F)F)c1)C(=O)c1ccc(OCC2CCCO2)cc1 (centres undefined) | 3.95 | -2.98
COc1ccc(/C(C)=N/NC(=O)c2cc(C)[nH]n2)c(OC)c1 | 2 | -0.24
Nc1cc(-c2cccc([N+](=O)[O-])c2)[nH]n1 | 0.08 | -0.03
O=C(CSc1nc2ccccc2n1CC(=O)N1CCCC1)N1CCN(C(=O)c2ccco2)CC1 | 0.48 | 0.11
CCOc1c(Br)cc(/C=C2\C(=O)N(CCC#N)N=C2C)cc1OC | 2.75 | -0.8
O=C(Cc1c(F)cccc1Cl)N/N=C/c1cccnc1 | 0.01 | -0.54
Cc1ccc(NC(=O)CSc2nccn2Cc2ccco2)cc1 | 2.1 | -1.02
CC(C)c1ccc(NC2CCCN(C(=O)CCCn3cncn3)C2)cc1 (centres undefined) | 0.47 | 1.79
CC(C)Cn1nc(C(=O)OCC(=O)NCC(F)(F)F)c2ccccc2c1=O | 1.22 | 0.31
CCCCN(C)Cc1c(C)[nH]c2c(ccc3ccccc32)c1=O | 1.21 | -0.16
O=c1ccc(NS(=O)(=O)c2ccccc2Cl)cn1Cc1ccc(Cl)c(Cl)c1 | 1.19 | -0.74
CCOC(=O)C1CCN(C(=O)COC(=O)COc2ccc(Cl)cc2)CC1 | 3.05 | -0.25
CCO[C@@H]1OC(C(=O)O)=C[C@H](C)[C@H]1CCCO | 0.74 | -0.3
O=C(CCNS(=O)(=O)c1ccccc1F)N1CCN(C(c2ccccc2)c2ccccc2)CC1 | 16.5* | 1.56*
O=C(N/N=C/c1cc(Cl)cc([N+](=O)[O-])c1O)C1CC1 | 0.27 | -2.47
Cc1cc(/C=C2/SC(=O)NC2=O)c(C)n1-c1ccc(N2CCOCC2)cc1 | 0.76 | -0.02
Cc1nc2ccc([N+](=O)[O-])cc2nc1C | 0.89 | 0.05
O=C(COC(=O)CNS(=O)(=O)/C=C/c1ccccc1)Nc1cccc2ccccc12 | 1 | 0.47
Cc1cc(C)nc(/N=C(\N)Nc2ccc(C)c([N+](=O)[O-])c2)n1 | 2.93 | 1.14
SMILES | KCNQ2 pot | KCNQ2 pot baseline
COC(=O)c1ccccc1NC(=O)CSc1nccn1C | 0.59 | 0.51
CCCC(C)NC(C)C(=O)NC1CCCC1 (centres undefined) | 1.07 | -1.09
CC(C)CCNC(=O)Cc1ccc(Nc2nc(=S)[nH]c3ccccc23)cc1 | 0.19 | -0.68
CCc1nnc(NC(=O)C2(C)COC(c3ccc(OC)cc3)OC2)s1 (centres undefined) | 0.56 | 6.06
CC(OC(=O)CCN=C1NS(=O)(=O)c2ccccc21)C(=O)NC1CCCCC1C (centres undefined) | 0.92 | 0.36
Cc1ccc(S(=O)(=O)C(C#N)c2nc3ccccc3nc2OC(C)C)cc1 (centres undefined) | 1.25 | -0.99
O=C(COC(=O)c1cncc(Br)c1)NCCC1=CCCCC1 | 0.89 | -0.84
O=c1[nH]c2ccc(S(=O)(=O)NCCO)cc2[nH]1 | 0.04 | 2.21
Cc1ccc2c(c1)c1c(n2C)C(C(N)=O)CCC1 (centres undefined) | 0.03 | -0.01
CCC/C=C1/CCCOC(C(=O)NCCN2CCOCC2)(C(F)(F)F)C1 (centres undefined) | 0.01 | -1.01
Cc1cc(C(=O)COC(=O)c2ccc(Cl)c(S(N)(=O)=O)c2)c(C)n1C1CC1 | 2.08 | 0.01
Cc1ncoc1C(=O)N1CCCC(C(=O)Nc2cccc(-c3ccc(F)cc3)c2)C1 (centres undefined) | 3.71 | 1.16
Cc1ccc(NC(=O)CCC(=O)NNC(=O)COc2ccccc2)c(C)c1 | 0.67 | -1.03
CC1CCN(C(=S)Nc2cccc(S(=O)(=O)N(C)C)c2)CC1 | 0.86 | -0.12
CCN1CCN(C(=O)c2ccc3c(Cl)c4c(nc3c2)CCCC4)CC1 | 0.63 | 0.12
Cn1c(=O)c2c(ncn2CC(=O)Nc2nnc(Cc3ccccc3)s2)n(C)c1=O | 0.02 | -0.96
Cc1nc2scc(C)n2c(=O)c1S(=O)(=O)Nc1ccc(OC(F)(F)F)cc1 | 3.05 | -2.6
Cn1c(=O)[nH]c(=O)c2c1nc(SCCN1CCOCC1)n2Cc1ccccc1 | 0.28 | 0.08
CC(C)(C)C(=O)CN1CCN(S(=O)(=O)c2ccc(F)cc2)CC1 | 0.5 | -0.39
Cc1cc(C)c(S(=O)(=O)N2CCN(CCO)CC2)c(C)c1 | 0.3 | -0.22
Cc1[nH]nc2c1/C(=N/O)CC(c1ccccc1)C2 (centres undefined) | 0.82 | -3.28
CCn1c(=O)c2cc(C(=O)Nc3cc(C)on3)sc2c2ccccc21 | 0.77 | -0.19
CCN(CC(=O)Nc1ccc2c(c1)OCCO2)S(=O)(=O)c1ccc(C)cc1 | 1.7 | 0.21
Cc1cc(=O)n2[nH]c(-c3ccc(C(C)(C)C)cc3)cc2n1 | 0.63 | -0.04
Cc1cccc(CSCCNC(=O)Nc2ccccc2)c1 | 2.12 | 0.09
SMILES | KCNQ2 pot | KCNQ2 pot baseline
Cc1ccc2nc(NCCCO)[nH]c2c1 | 1.59 | -1.45
COc1ccc(-c2cc(=O)[nH]c(=S)[nH]2)cc1 | 0.95 | -1.94
CCCCC(=O)Nc1ccc(Cl)cn1 | 0.91 | -1.38
Cc1nnc(NC(=O)CSc2nnc(Cc3cccn3C)n2-c2cccc(C)c2C)s1 | 0.05 | 0
COc1ccc(N(CC(=O)Nc2ccccc2C(=O)N2CCCC2)S(C)(=O)=O)cc1 | 1.25 | 0
C/C=C(\C)C(=O)OC1c2c(ccc3ccc(=O)oc23)OC(C)(C)C1OC(C)=O (centres undefined) | 1.29 | -1.07
COC(=O)c1ccc(NC(=O)CN(C2CCCCC2)S(C)(=O)=O)cc1 | 0.03 | -0.14
O=C(c1cc2nc(-c3ccccc3)cc(C(F)(F)F)n2n1)N1CCOCC1 | 1.32 | -1.5
O=C(CCN1C(=O)c2ccccc2S1(=O)=O)NCc1ccc(F)cc1 | 1.23 | -0.05
CCc1ccc(N(C(=O)c2csnn2)C(C(=O)NC2CCCCC2)c2cccnc2)cc1 (centres undefined) | 0.72 | -0.79
Cc1ccc(F)cc1NC(=O)CSc1nnc(CNC(=O)c2ccco2)n1C | 2.84 | 2.65
Cc1cc(C)cc(N(CC(=O)NCc2ccco2)C(=O)CCC(=O)Nc2ccccn2)c1 | 0.09 | -3.71
CC1(C)Oc2ccc(C(=O)NC3CCCC3)cc2N(CC(=O)NC2CCCCC2)C1=O | 0.7 | -0.27
CCOC(=O)c1cc(C#N)c(SC)nc1C | 0.6 | -0.7
CCOc1c(Cl)cc(CNCC(C)C)cc1OC | 0.97 | 1.22
CCN(CC(=O)Nc1cc(Cl)ccc1C)C(=O)c1cc([N+](=O)[O-])ccc1N1CCOCC1 | 1.06 | -0.03
Cc1ccc(CSc2ccc(C(=O)N3CCOCC3)cc2[N+](=O)[O-])cc1 | 1.38 | -3.6
N/C(=N\OC(=O)c1cc(-c2ccccc2)nc2ccccc12)c1ccncc1 | 0.21 | -0.86
Cn1c(C(=O)N2COCC2(C)C)cc2c(=O)n3ccccc3nc21 | 0.95 | -0.11
CCCCn1c(N)c(N(CCOC)C(=O)COc2c(C)cccc2C)c(=O)[nH]c1=O | 0.04 | 0.11
CCSc1nnc(NC(=O)Cc2ccc(OC)c(S(=O)(=O)N3CCOCC3)c2)s1 | 0.01 | 1.41
CCn1c(CC(=O)Nc2ccc(Cl)cc2)nnc1SCC(=O)N1CCOCC1 | 1.54 | -0.63
COc1ccc(OCC(=O)N/N=C/C2CC=CCC2)cc1 (centres undefined) | 0.7 | 0.38
COC(=O)c1ccc2nc(Nc3nc4c(F)cc(F)cc4s3)sc2c1 | 2.67 | 0.82
CCCCSc1cc(=O)[nH]c(N)n1 | 1.29 | -0.55

Reprinted at random: 7 records from the list, in no set order.
SMILES | KCNQ2 pot | KCNQ2 pot baseline
CCOC(=O)c1cc(C#N)c(SC)nc1C | 0.6 | -0.7
Cc1nc2ccc([N+](=O)[O-])cc2nc1C | 0.89 | 0.05
Cc1ccc(NC(=O)CSc2nccn2Cc2ccco2)cc1 | 2.1 | -1.02
O=C(c1cc2nc(-c3ccccc3)cc(C(F)(F)F)n2n1)N1CCOCC1 | 1.32 | -1.5
CCOC(=O)C1CCN(C(=O)COC(=O)COc2ccc(Cl)cc2)CC1 | 3.05 | -0.25
Cc1ccc2nc(NCCCO)[nH]c2c1 | 1.59 | -1.45
CCN(CC(=O)Nc1ccc2c(c1)OCCO2)S(=O)(=O)c1ccc(C)cc1 | 1.7 | 0.21

Returning to the listing; the four compounds before the break are reprinted first.
SMILES | KCNQ2 pot | KCNQ2 pot baseline
CCn1c(CC(=O)Nc2ccc(Cl)cc2)nnc1SCC(=O)N1CCOCC1 | 1.54 | -0.63
COc1ccc(OCC(=O)N/N=C/C2CC=CCC2)cc1 (centres undefined) | 0.7 | 0.38
COC(=O)c1ccc2nc(Nc3nc4c(F)cc(F)cc4s3)sc2c1 | 2.67 | 0.82
CCCCSc1cc(=O)[nH]c(N)n1 | 1.29 | -0.55
COC(=O)c1nn(-c2ccccc2)c(Cl)c1/C=N/O | 1.1 | -1.37
O=C(NCC(=O)N1CCN(c2ccccc2)CC1)c1ccc(Cl)cc1 | 0.15 | -0.25
O=C(O)c1ccc(Oc2ccc(C(F)(F)F)cn2)cc1 | 0.68 | 0
CC1(C)CC(=O)C2=C(C1)N(c1ncn[nH]1)C(N)=C(C#N)C2c1ccccc1 (centres undefined) | 0.59 | 0.56
Cc1cccc(NC(=O)CCN2CCN(C)CC2)c1 | 1.62 | -0.08
COc1cc(/C=C2/SC(=S)N(Cc3ccccc3)C2=O)cc(OC)c1O | 0.31 | 2.86
Cc1cccc(NC(=O)CSc2ccc(-c3cccs3)nn2)c1C | 0.09 | -0.48
O=C(Nc1ccc(Cl)c(Cl)c1)N1CCCCCC1 | 0.11 | 0.83
O=C(Nc1ccc(Br)cc1)C1CCCC1 | 1.63 | -0.23
Cc1ccnc(NS(=O)(=O)c2ccc(NC(=O)c3cncc(Br)c3)cc2)n1 | 1.62 | -0.81
CCC(CC)C(=O)Nc1cccc(C(=O)NCCc2ccccc2)c1 | 0.01 | -1.74
Cc1ccc(NC(=O)CCc2ccc(C)o2)c(Br)c1 | 4.25 | 0.01
COc1ccc(CCN2C(=O)CC(Nc3ccc(N4CCOCC4)cc3)C2=O)cc1OC (centres undefined) | 0.05 | -0.91
CC(C)CN1CC(C(=O)O)CC1=O (centres undefined) | 1.24 | -0.04
O=C1C2=C(c3ccccc31)[N+](=O)[C@@H]1CCCC[C@@H]1N2[O-] | 1.94 | -0.72
COc1ccccc1N(CC(=O)NCCc1ccccc1)C(=O)CCC(=O)Nc1nccs1 | 1.23 | -0.01
COc1cccc(CC2(CO)CCN(Cc3cn(C)nc3C)CC2)c1 | 0.25 | -0.6
CCOc1ccccc1-c1nc(-c2ccc(NC(=O)c3ccc(Br)o3)cc2)no1 | 3.15 | -1.32
CCOc1ccc(CCNC(=O)COC(=O)Cc2ccc(OC)c(OC)c2)cc1OCC | 0.52 | 0.23
NC1=NC(c2ccc(Br)cc2)n2c(nc3ccccc32)N1 (centres undefined) | 1.29 | -0.04
COc1c(CC=C(C)C)cc(C2CC(=O)c3c(O)cc(O)cc3O2)cc1CC=C(C)C (centres undefined) | -5.6 | x
COc1ccc(Cl)cc1NC(=O)C1CSC(c2ccncc2)=N1 (centres undefined) | 1.45 | 0.41
CC(=O)Nc1ccc(C(=O)/C=C/c2ccco2)cc1 | 0.02 | 0.01
C/C(=N\NC(=O)c1cccnc1)c1ccc(C)c([N+](=O)[O-])c1 | 0.66 | -0.27
Cc1nc(SCc2ccc(F)cc2)c2oc3ccccc3c2n1 | 0.03 | 3.9
SMILES | KCNQ2 pot | KCNQ2 pot baseline
O=C(COc1ccccc1)c1cn(CC(=O)N2CCOCC2)c2ccccc12 | 0.72 | -0.62
COc1ccc(S(=O)(=O)Cc2ccc(C(=O)O)o2)cc1 | 0.53 | 1
Clc1ccccc1CSc1snnc1-c1ccccc1 | -5.55 | x
COc1ccccc1C(=O)Nc1ccc2c(c1)nc(CCNC(=O)c1ccco1)n2C | 0.77 | -0.35
CC(=O)N1c2ccc(S(=O)(=O)N3CCCCC3)cc2CC1C(=O)Nc1ccc(C)cc1 (centres undefined) | 0.04 | 0.14
Cc1ccc(C)c(S(=O)(=O)NC(Cc2c[nH]c3ccccc23)C(=O)O)c1 (centres undefined) | 0.02 | 0.17
CCN(CC)c1ccc(/C=N/NC(=O)c2c(Cl)c(C)nn2C)cc1 | 0.09 | -0.48
O=C(Oc1ccc(C(=S)N2CCOCC2)cc1Br)c1cc(Cl)ccc1Cl | 0.23 | -0.29
Cc1ccc(NC(=O)c2ccc(OC(F)F)cc2)cc1S(=O)(=O)N(C)C | 0.03 | -1.26
O=C(Nc1ccccc1)c1sc(N2CCOCC2)nc1-c1ccccc1 | 0.15 | 2.4
O=C(NCC(=O)N(Cc1ccco1)C(C(=O)NC1CCCCC1)c1ccncc1)c1cccs1 (centres undefined) | 0.07 | 2.02
CCOC(=O)c1cc2occc2n1CC(=O)NC1CCCCC1C (centres undefined) | 1.54 | -1.29
Cc1ccc2nc(NC(=O)c3ccc(OCC4CCCO4)cc3)sc2c1 (centres undefined) | 0.74 | -0.72
